Vaccinia Venus = inhibitors of vaccinia virus (Venus reporter) | Vaccinia virus Venus reporter expression, fluorescence | actives 0.46% (n = 330,000) | AID 720580 | Potency, µM (highest dose often 36.5 µM), without a hit: at the highest dose activity change, negative = inhibition, most hits filed as inhibitors; active means well fitted inhibition curve with a large enough effect; inconclusive means small, poorly fitted or top-dose-only effect; inactive means no such curve, though single readings can be large or run the other way; tested in A549 cells; further: nearly all actives have a fitted effect of over 30% in size; inactives centre near -10
VACV mCherry inh = vaccinia inhibition (mCherry reporter). actives 0.63% (n = 310,000). Vaccinia virus mCherry reporter infection, fluorescence; about a quarter of the inactives have no number. Potency, µM (series often up to 36.5 µM), without a hit: at the top dose activity change, negative = inhibition, usual class: inhibitors; active = well fitted inhibition curve with a large enough effect; inconclusive = small, poorly fitted or top-dose-only effect; inactive = no such curve, though single readings can be large or run the other way; tested in A549 cells; further: nearly all actives have a fitted effect of over 35% in size; inactives centre near -10
The depositor's hits bear a star; [ ] = another dose, or the depositor's remark. On the % scale 0 is the no-effect control and ±100 the full control effect; potency means the concentration at half of the fitted maximal effect. No enrichment for hits; any-hit rate near 0.82%.

CN(CC(=O)Nc1ccccc1Br)C(=O)C1CCN(C(=O)c2ccc(Cl)cc2)CC1 was read as Vaccinia Venus -10.1% and VACV mCherry inh -13.6%.
CC(C)c1ccccc1NCC(=O)N1CCN(Cc2ccccc2)CC1 was read as Vaccinia Venus -18.1% and VACV mCherry inh inactive.
For COc1ccccc1CNC(=O)C1(C)Oc2cccnc2NC1=O (stereo not given) the results were Vaccinia Venus 2.3% and VACV mCherry inh -13.3%.
For COc1ccc(S(=O)(=O)N(C)c2ccc(C(=O)NCc3ccco3)cc2)cc1 the results were Vaccinia Venus -15.9% and VACV mCherry inh -0.9%.
For CCOC(=O)CN1C(=O)N[C@@H](c2cccc(F)c2)C(C(=O)OC)=C1C the results were Vaccinia Venus -20.1% and VACV mCherry inh -4.9%.
For Cc1cc(N2CCN(C(=O)c3ccco3)CC2)n2ncc(-c3ccccc3)c2n1 the results were Vaccinia Venus -18.2%.
CCC1(C2CCN(Cc3ccccc3Cl)CC2)NC(=O)N(CC2COc3ccccc3O2)C1=O (stereo not given) was read as Vaccinia Venus -19.3% and VACV mCherry inh -18.4%.
O=C(CCn1c(=S)oc2ccccc21)NC1CCCCC1 was read as Vaccinia Venus -15.8% and VACV mCherry inh -4.5%.
Screening O=C(/C=C/c1ccc(O)c(O)c1)OCCc1ccccc1 returned Vaccinia Venus inconclusive and VACV mCherry inh -7.6%.
For COc1ccc(CN2Cc3cnnn3-c3ccccc3C2c2ccccc2)cc1 (stereo not given) the results were Vaccinia Venus inconclusive and VACV mCherry inh inconclusive.
O=C(CCCOc1ccccc1)Nc1cccnc1 was read as Vaccinia Venus -5.5% and VACV mCherry inh -1.0%.
Screening N#Cc1cccc(NC(=O)Nc2cccs2)c1 returned Vaccinia Venus -23.2%.
CC1(C(=O)Nc2ccc3nc[nH]c3c2)CCN1C(=O)C1(c2ccccc2)CC1 (stereo not given) was read as Vaccinia Venus 2.4% and VACV mCherry inh 21.9%.
`COc1ccc(CNC(=O)C(=O)NCCC2CCCCN2S(=O)(=O)c2ccccc2)cc1` (stereo not given) gave Vaccinia Venus inconclusive and VACV mCherry inh -17.8%.
COc1cc2c(cc1OC)/C(=C/C#N)NC(C)(C)C2 was read as Vaccinia Venus -8.4% and VACV mCherry inh -16.3%.
Cc1ccc(C)c(NS(=O)(=O)c2cc(C(N)=O)ccc2C)c1 was read as Vaccinia Venus -11.5% and VACV mCherry inh -16.3%.
`CN1CCC(O)(c2cccs2)C(C(=O)c2cccs2)C1` (stereo not given) gave Vaccinia Venus -9.7% and VACV mCherry inh -0.7%.
For COC(=O)C1=C(C)N(C)C(=O)NC1c1cc(Cl)c(O)c(OC)c1 (stereo not given) the results were Vaccinia Venus 0.0% and VACV mCherry inh -6.7%.
COc1ccc(OC)c(S(=O)(=O)N2CCCC(C(=O)NCCc3ccccc3)C2)c1 (stereo not given) was read as Vaccinia Venus -16.3% and VACV mCherry inh -19.9%.
For CCOC(=O)C(Cc1c[nH]c2ccccc12)NC(=O)c1ccco1 (stereo not given) the results were Vaccinia Venus -17.9%.
For CCN1CCN(c2oc(COc3ccc(-c4ccccc4)cc3)nc2C#N)CC1 the results were Vaccinia Venus inconclusive and VACV mCherry inh inconclusive.
Screening Cc1cc2nc(CN(C)Cc3c(C(=O)N(C)C)nc4ccc(Cl)cn34)[nH]c2cc1C returned Vaccinia Venus -14.8% and VACV mCherry inh inactive.
`COc1ccc(C(=O)N/N=C(\c2ccccc2)c2ccccn2)cc1` gave Vaccinia Venus inconclusive and VACV mCherry inh 2.24µM*.
Screening OC(CNc1nc(C(F)(F)F)nc2ccccc12)c1ccccc1 (stereo not given) returned Vaccinia Venus -17.1% and VACV mCherry inh 3.5%.
`COC(=O)CCCC[C@@H]1O[C@H](CCc2ccccc2)Cc2[nH][nH]c(=O)c21` gave Vaccinia Venus 3.5% and VACV mCherry inh 27.9%.
CC(=O)C1=C(C)N(c2ccccc2)C(=O)C1(NS(=O)(=O)c1ccc(N)cc1)C(F)(F)F (stereo not given) was read as Vaccinia Venus -12.9% and VACV mCherry inh 1.5%.
CC(C)CC(=O)N1C/C=C\C[C@@H](c2ccc(Cl)cc2)N(Cc2ccc(Cl)cc2)C(=O)[C@@H]1Cc1ccccc1 was read as Vaccinia Venus -20.1% and VACV mCherry inh -21.6%.
For COc1ccc(NC(=O)NC(C)c2c(-n3cccc3)sc3c2CCN(C)C3)c(OC)c1 (stereo not given) the results were Vaccinia Venus -26.9% and VACV mCherry inh -21.9%.
`CC(=O)Nc1ccc(O)cc1[N+](=O)[O-]` gave Vaccinia Venus -14.9% and VACV mCherry inh -6.7%.
For CC(C)CC[C@@H](O)[C@](C)(O)C1CC[C@@]2(O)C3=CC(=O)[C@@H]4C[C@@H](O)[C@@H](O)C[C@]4(C)C3CC[C@]12C (stereo not given in full) the results were Vaccinia Venus -8.2% and VACV mCherry inh inactive.

Five records picked at random from those above, as already listed:
`CC(=O)Nc1ccc(O)cc1[N+](=O)[O-]` gave Vaccinia Venus -14.9% and VACV mCherry inh -6.7%.
Screening N#Cc1cccc(NC(=O)Nc2cccs2)c1 returned Vaccinia Venus -23.2%.
Cc1ccc(C)c(NS(=O)(=O)c2cc(C(N)=O)ccc2C)c1 was read as Vaccinia Venus -11.5% and VACV mCherry inh -16.3%.
Screening O=C(/C=C/c1ccc(O)c(O)c1)OCCc1ccccc1 returned Vaccinia Venus inconclusive and VACV mCherry inh -7.6%.
For COc1ccccc1CNC(=O)C1(C)Oc2cccnc2NC1=O (stereo not given) the results were Vaccinia Venus 2.3% and VACV mCherry inh -13.3%.

The results go on:
O=C(NC1CC1)C1=C[C@@H](c2csc3ccccc23)C[C@@H](OCc2ccc(CO)cc2)O1 was read as Vaccinia Venus inconclusive and VACV mCherry inh inactive.
For C[C@]12CCC(=O)C[C@H]1CC[C@@H]1[C@@H]2CC[C@]2(C)C(=O)CC[C@@H]12 the results were Vaccinia Venus 0.4% and VACV mCherry inh 0.0%.
Screening CC(C)N(c1ccccc1)c1ccc(NC(=S)NCCN(C)C)cc1 returned Vaccinia Venus -5.0% and VACV mCherry inh -7.5%.
`CCC1(c2ccccc2)NC(=O)N(CC(=O)N2CCc3ccccc32)C1=O` (stereo not given) gave Vaccinia Venus -22.8% and VACV mCherry inh inconclusive.
Cc1ccc(Cn2ccc(NC(=O)c3cc(-c4ccc(Cl)c(Cl)c4)on3)n2)cc1 was read as Vaccinia Venus -29.1% and VACV mCherry inh -29.7%.
Screening O=C(Nc1cccc(S(=O)(=O)N2CCCC2)c1)c1ccc2ccccc2n1 returned Vaccinia Venus -13.1% and VACV mCherry inh -8.8%.
`COc1cc(NC2c3ccccc3C(=O)N2Cc2ccccc2)cc(OC)c1OC` (stereo not given) gave Vaccinia Venus -7.0% and VACV mCherry inh inconclusive.
O=C(CN(C(=O)CCC(=O)Nc1nccs1)c1ccc(F)cc1)NCC1CCCO1 (stereo not given) was read as Vaccinia Venus -8.8%.
Cc1cccc(NC(=O)Cn2c(=O)oc3cc(S(=O)(=O)N4CCCCCC4)ccc32)c1 was read as Vaccinia Venus -20.9% and VACV mCherry inh -21.6%.
CCN1CCN(c2ccc(S(=O)(=O)N3CCCCC3)cc2NC(=O)Cc2c(F)cccc2Cl)CC1 was read as Vaccinia Venus -14.4% and VACV mCherry inh -16.7%.
Screening COc1cc(C(=O)NC(=S)Nc2nc(-c3ccc(F)cc3)cs2)cc(OC)c1OC returned Vaccinia Venus -16.7% and VACV mCherry inh inactive.
COCN(C#N)c1nc(OC)nc(OC)n1 was read as Vaccinia Venus -2.0% and VACV mCherry inh inactive.
For CCOc1ccc(NC(=O)CN2C(=O)NC(CCc3ccccc3)C2=O)cc1OCC (stereo not given) the results were Vaccinia Venus -2.5% and VACV mCherry inh inactive.
Screening CC(C)(C)C(=O)COC(=O)c1cc(-c2ccncc2)nc2ccccc12 returned Vaccinia Venus -17.7% and VACV mCherry inh -0.5%.
`CCCc1cc(=O)oc2cc(OCC(=O)Nc3ccc4c(c3)OCCO4)ccc12` gave Vaccinia Venus -3.8% and VACV mCherry inh -14.6%.
For COc1ccc([N+](=O)[O-])cc1N(CC(=O)N1CCCCC1)S(C)(=O)=O the results were Vaccinia Venus -18.3% and VACV mCherry inh -1.5%.
`O=C(c1cccnc1)c1cccnc1` gave Vaccinia Venus -0.9% and VACV mCherry inh -8.9%.
Screening Cc1ccccc1OCC(=O)Nc1ccc(S(=O)(=O)Nc2onc(C)c2C)cc1 returned Vaccinia Venus -17.9% and VACV mCherry inh -11.4%.
For O=C(Nc1ccccn1)c1cccc(S(=O)(=O)N2CCOCC2)c1 the results were Vaccinia Venus -18.2%.
`Cc1ccnc(NC(=O)Cn2c(=O)oc3cc(S(=O)(=O)N4CCCC4)ccc32)c1` gave Vaccinia Venus -0.8% and VACV mCherry inh -12.7%.
Screening COc1ccc2nc(N3C(=O)C(O)=C(C(=O)c4ccco4)C3c3ccco3)sc2c1 (stereo not given) returned Vaccinia Venus -12.8% and VACV mCherry inh -15.4%.
Screening Cc1ccc2cccc(NC(=O)c3ccc(-c4cccc([N+](=O)[O-])c4)o3)c2n1 returned Vaccinia Venus -7.1% and VACV mCherry inh -4.9%.
CCOC(=O)c1oc2c(O)c(O)ccc2c(=O)c1-c1nncn1-c1ccccc1 was read as Vaccinia Venus -2.0%.
For COc1ccc(NC(=O)CN(C)C(=O)CCCNC(=O)c2ccc(Cl)cc2)cc1 the results were Vaccinia Venus -1.1% and VACV mCherry inh -2.5%.
COc1ccc(N2CCN(S(=O)(=O)c3ccc4c(c3)CCCN4C(C)=O)CC2)cc1 was read as Vaccinia Venus -11.1% and VACV mCherry inh 1.4%.
`COc1cc(C2C(C#N)=C(N)OC3=C2C(=O)CC(C)(C)C3)ccc1OCCN1CCOCC1` (stereo not given) gave Vaccinia Venus 7.4% and VACV mCherry inh -8.6%.
For COc1ccc(Nc2nnc(-c3ccc(C(N)=O)cc3)c3ccccc23)cc1 the results were Vaccinia Venus -14.8% and VACV mCherry inh -23.3%.
For CCN1C(=O)CC(N2CCN(c3ccc(Cl)cc3)CC2)C1=O (stereo not given) the results were Vaccinia Venus -17.6%.
Screening COc1cc(C(=O)OCC(=O)N2CCOCC2)c([N+](=O)[O-])cc1OC returned Vaccinia Venus 7.0% and VACV mCherry inh 15.7%.
Screening S=C(NNC(=S)Nc1ccccc1)Nc1ccccc1 returned Vaccinia Venus -5.6% and VACV mCherry inh inactive.
For CC(C)Cn1c(=O)c2ccccc2n2c(SCC(=O)N3c4ccccc4CC3C)nnc12 (stereo not given) the results were Vaccinia Venus -19.9% and VACV mCherry inh inactive.
For CN1CCN(CC(=O)Nc2ccc(Cl)cc2C(=O)c2ccccc2)CC1 the results were Vaccinia Venus -10.0% and VACV mCherry inh -3.3%.
CC(Oc1ccc(Cl)cc1Cl)C(=O)NNC(=O)c1ccncc1 (stereo not given) was read as Vaccinia Venus -21.2% and VACV mCherry inh inactive.
For O=S(=O)(c1ccc(-c2cc(C(F)(F)F)on2)s1)N1CCN(c2ccccc2F)CC1 the results were Vaccinia Venus inconclusive and VACV mCherry inh -9.9%.
`CCCCOc1ccc(N=Cc2cccs2)cc1` gave Vaccinia Venus 3.4% and VACV mCherry inh inactive.
CCOC(=O)c1ccccc1NC(=O)N(Cc1ccc(CC)cc1)Cc1cn[nH]c1-c1ccc(OC)cc1 was read as Vaccinia Venus inconclusive and VACV mCherry inh inconclusive.
`CCCCN(C)CCNC(=O)c1cc2c(=O)n(C)c3ccccc3c2n1C` gave Vaccinia Venus -12.4%[7.34 µM] and VACV mCherry inh -5.8%[7.34 µM].
`Cc1cc2c(cc1C)/C(=C\C(N)=O)NC(C)(C)C2` gave Vaccinia Venus -9.7% and VACV mCherry inh -17.9%.
Screening COc1ccc(NC(=O)CSc2nc(N)c3cc4c(nc3n2)CCCC4)c(OC)c1 returned Vaccinia Venus -18.1% and VACV mCherry inh -21.0%.
For Cc1csc2sc(-c3ccnc(SCC(=O)NCc4ccccc4)n3)c(C)c12 the results were Vaccinia Venus -27.7%[7.34 µM] and VACV mCherry inh -26.0%[7.34 µM].
`CN(C(=O)c1coc(=O)c2ccccc12)c1ccccc1Cl` gave Vaccinia Venus -22.1% and VACV mCherry inh -6.8%.
For CCOCC(=O)Nc1nnc(Cc2ccc(OC)cc2)s1 the results were Vaccinia Venus -14.8% and VACV mCherry inh -1.1%.
`O=C1CCCC2=C1C(c1ccsc1)CC(=O)N2c1ccccc1F` (stereo not given) gave Vaccinia Venus -5.5% and VACV mCherry inh inactive.
`CC(OC(=O)c1cc2sccc2n1C)C(=O)NCc1ccc(F)cc1` (stereo not given) gave Vaccinia Venus -13.5% and VACV mCherry inh -18.2%.
`Cc1ccc2c(C(=O)CNc3nc(C)c(C)s3)c(C)[nH]c2c1` gave Vaccinia Venus -21.7% and VACV mCherry inh -25.4%.
`Cc1ccc(F)c(Oc2cc(NN3CCCCC3)c([N+](=O)[O-])cc2[N+](=O)[O-])c1` gave Vaccinia Venus -13.7% and VACV mCherry inh -4.7%.
Screening COCCCN1CC(=O)N2C(c3ccc(OC)c(OC)c3)c3[nH]c4ccccc4c3C[C@H]2C1=O (stereo not given in full) returned Vaccinia Venus -4.1% and VACV mCherry inh -12.9%.
Screening Cc1[nH]c2ccccc2c1/C=N/Nc1nncn1N returned Vaccinia Venus inconclusive and VACV mCherry inh inconclusive.
For CC(=O)N(C)c1ccc(NC(=S)Nc2ccccc2)cc1 the results were Vaccinia Venus -13.0% and VACV mCherry inh -19.6%.
For O=C(COC(=O)c1cc(-c2ccccc2)nc2c(Cl)cccc12)c1ccc(F)cc1 the results were Vaccinia Venus -8.1% and VACV mCherry inh -15.9%.

Bioassay records as filed in PubChem BioAssay.
